# HIV TAR-Tat: HIV-1 TAR-Tat binding disruption; HIV-1 TAR RNA, Tat peptide displacement FRET; active compounds read high; z-score (test concentration not listed); 0.6% of 100,000 active;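 further: score is relative to mean and SD of negative controls; some compounds called inactive have numbers as strong as hits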
# CDC25B-CDK2 inh: human CDC25B-CDK2/CyclinA binding inhibition; HTRF CDC25B-CDK2/CyclinA binding, anti-His/anti-Flag; active compounds read high; z-score (test concentration not listed); 0.72% of 94,000 active; AID 1259370;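 further: score is relative to mean and SD of negative controls; strong numbers were not always called active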
# Active calls of the source: *; nt = no result given; & = joins results of further samples.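 How the source made its calls: active means z-score from 3 up in half or more of its runs; inactive means the rest.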
SMILES,HIV TAR-Tat,CDC25B-CDK2 inh
Cc1cc2oc3c(c(=O)c2cc1C)C(c1cccc(O)c1)N(CCCn1ccnc1)C3=O (centres undefined),-1,-2.5
O=S1(=O)CC2N=C(N(Cc3ccccc3Cl)c3ccccc3)SC2C1 (centres undefined),1.6,-1.5
COc1cc(C2C(C(=O)c3cccs3)=C(O)C(=O)N2Cc2cccnc2)ccc1O (centres undefined),-0.52,-2.2
COc1ccc(N(CC(=O)Nc2cc(Cl)ccc2OC)C2=NC3CS(=O)(=O)CC3S2)cc1 (centres undefined),1.2,-0.27
CC1=C(C(=O)OC2CCCC2)C(c2c(F)cccc2Cl)CC(=O)N1 (centres undefined),1.1,-1.1
CCCCSC1=C(C#N)C(=O)NC(CCC)S1 (centres undefined),-1.5,-1.3
CCN(CC)c1ccc(NC(=O)Cn2nc3c4sccc4ncn3c2=O)c(C)c1,0.55,nt
Cc1ccc(-c2c3c(nc4ncnn24)-c2ccccc2C3=O)cc1,0.03,-4.1
O=C1C2CC=C(Cl)CC2C(=O)N1CC1OCCc2ccccc21 (centres undefined),nt,-0.52
CCOc1ccc(S(=O)(=O)c2c[nH]c3ccc(F)cc3c2=O)cc1,1.3,-0.81
CCN(C(=O)c1c([N+](=O)[O-])cnn1C)c1ccccc1,1.6,0.93
CC(C)CCN1C(=O)c2ccc(-c3nc4cc(Cl)ccc4c(=O)o3)cc2C1=O,nt,-1.8
Cc1nc(C(F)(F)F)ccc1C(=O)NNc1c(Cl)cncc1Cl,nt,-1.6
Cc1[nH]c(C)c(S(=O)(=O)N2CCc3ccccc32)c1C(=O)N1CCCCC1,-1.5,nt
c1coc(-c2nn3c(C4COc5ccccc5O4)nnc3s2)c1 (centres undefined),0.29,-1.7
COC(=O)C1=C(C)NC2=C(C(=O)CCC2)C1c1ccc(SC)cc1 (centres undefined),1.3,0.54
NC(=O)CSc1nc2ccc(NC(=O)c3cccs3)cc2s1,0.13,-0.63
CCCc1cc(=O)n2nc(N(C)CC(=O)NCCN3CCN(CC)CC3)sc2n1,0.47,-0.09
Cc1cc(C)cc(N2CC(O)=C(c3nc4ccccc4s3)C2=N)c1,-1.6,-0.43
O=C(OCc1cc(=O)n2nc(C3CC3)sc2n1)c1ccc(NC(=O)C2CCCCC2)cc1,-0.01,nt
Cn1nnc2c(NC3CCCCCCCCCCC3)ncnc21,1.5,nt
Cc1c(C(=O)N2CCc3ccccc3C2)oc2ccc(S(=O)(=O)N3CC(C)CC(C)C3)cc12 (centres undefined),nt,0.63
CCNc1oc(-c2ccc(COc3ccc(Cl)cc3)o2)nc1C#N,2.2,-0.77
Cc1ccc(-n2c(=O)[nH]c3c(C(N)=O)nc(-c4ccco4)nc32)cc1C,0.04,nt
CN(CCc1ccccn1)C(=O)c1cc2c(s1)-c1ccccc1OC2,1.5,-0.23

# 17 consecutive compounds out of the list so far:
SMILES,HIV TAR-Tat,CDC25B-CDK2 inh
O=C1C2CC=C(Cl)CC2C(=O)N1CC1OCCc2ccccc21 (centres undefined),nt,-0.52
CCOc1ccc(S(=O)(=O)c2c[nH]c3ccc(F)cc3c2=O)cc1,1.3,-0.81
CCN(C(=O)c1c([N+](=O)[O-])cnn1C)c1ccccc1,1.6,0.93
CC(C)CCN1C(=O)c2ccc(-c3nc4cc(Cl)ccc4c(=O)o3)cc2C1=O,nt,-1.8
Cc1nc(C(F)(F)F)ccc1C(=O)NNc1c(Cl)cncc1Cl,nt,-1.6
Cc1[nH]c(C)c(S(=O)(=O)N2CCc3ccccc32)c1C(=O)N1CCCCC1,-1.5,nt
c1coc(-c2nn3c(C4COc5ccccc5O4)nnc3s2)c1 (centres undefined),0.29,-1.7
COC(=O)C1=C(C)NC2=C(C(=O)CCC2)C1c1ccc(SC)cc1 (centres undefined),1.3,0.54
NC(=O)CSc1nc2ccc(NC(=O)c3cccs3)cc2s1,0.13,-0.63
CCCc1cc(=O)n2nc(N(C)CC(=O)NCCN3CCN(CC)CC3)sc2n1,0.47,-0.09
Cc1cc(C)cc(N2CC(O)=C(c3nc4ccccc4s3)C2=N)c1,-1.6,-0.43
O=C(OCc1cc(=O)n2nc(C3CC3)sc2n1)c1ccc(NC(=O)C2CCCCC2)cc1,-0.01,nt
Cn1nnc2c(NC3CCCCCCCCCCC3)ncnc21,1.5,nt
Cc1c(C(=O)N2CCc3ccccc3C2)oc2ccc(S(=O)(=O)N3CC(C)CC(C)C3)cc12 (centres undefined),nt,0.63
CCNc1oc(-c2ccc(COc3ccc(Cl)cc3)o2)nc1C#N,2.2,-0.77
Cc1ccc(-n2c(=O)[nH]c3c(C(N)=O)nc(-c4ccco4)nc32)cc1C,0.04,nt
CN(CCc1ccccn1)C(=O)c1cc2c(s1)-c1ccccc1OC2,1.5,-0.23

# Further structures follow.
SMILES,HIV TAR-Tat,CDC25B-CDK2 inh
Cc1noc2ncnc(N3CCC(C(=O)N4CCCc5ccccc54)CC3)c12,3.6,nt
Cc1c(C(=O)Nc2ccc(F)cc2)oc2c1-c1[nH]ncc1CC2,-3,0.87
O=C(NCc1ccco1)C(=O)Nc1c2c(nn1-c1ccccc1)CSC2,1.5,nt
COCCCNC(=O)c1cc2c(s1)-c1ccsc1CC2,-0.42,nt
COc1cccc(C2CC(=O)NC3=C2C(=O)CC(c2ccccc2Cl)C3)c1OC (centres undefined),2.8,-0.7
Cc1ccc(C)c(C2CC(=O)Nc3nc(SCc4ccccc4C)[nH]c(=O)c32)c1 (centres undefined),2.7,-2.1
NC(CCCP(=O)(O)O)C(=O)O (centres undefined),nt,0.04
O=C(CSc1nc(=O)n(CCN2CCOCC2)c2c1CCC2)Nc1ccc(F)c(F)c1,1.6,nt
CCn1cc(S(=O)(=O)c2ccccc2)c(=O)c2cc(F)c(N3CCN(c4ccccc4)CC3)cc21,0.64,nt
CCC1SC2=NC(C)=C(C(=O)OC)C(c3ccccc3)N2C1=O (centres undefined),-0.28,-2.4
O=C(NCC1CCCO1)C1C2C=CC3(CN(Cc4cccs4)C(=O)C13)O2 (centres undefined),nt,-0.99
CCOc1cc(C2c3c(oc4ccc(Cl)cc4c3=O)C(=O)N2Cc2ccc(F)cc2)ccc1O (centres undefined),0.9,-1.1
Cc1ccc(C2=NN=C(NC(=O)CSc3nc(C)cc(C)n3)SC2)cc1,nt,-2.1
CC(=O)C1C(c2ccccc2)c2c(noc2C)CC1(C)O (centres undefined),nt,0.73
COC(=O)c1sccc1NC(=O)c1ccno1,nt,-3.1
COc1ccc(OC)c(S(=O)(=O)NCc2c(C)nn(C)c2C)c1,-0.07,nt
O=C(CSc1nc2c(c(=O)n1Cc1ccccc1)SCC2)N1CCCC1,-0.02,nt
CC(=O)OC[C@@]1(O)C[C@@]23CC[C@@H]4c5ccoc5C=C[C@@]4(C)[C@@H]2CC[C@@H]1C3,3.2,nt
C=CCSC(=Nc1ccccc1)C(C#N)c1nc2ccccc2[nH]1 (centres undefined),nt,-0.66
O=C(c1cc(-c2ccc3c(c2)OCCO3)on1)N(Cc1ccccc1)Cc1ccco1,-0.21,2
COC(=O)CSc1nnc(CSc2nc(C)cc(C)n2)n1-c1ccc(F)cc1,0.41,-0.8
Cc1nn(-c2nncc(-c3ccccc3)n2)c2c1C(c1cccc(O)c1)CC(=O)N2 (centres undefined),2.6,-1.6
CN(CC1COc2ccccc2O1)S(=O)(=O)c1ccc2c(c1)NC(=O)CCS2 (centres undefined),1.4,nt
C=CC(C1=CC(=O)C(OC)=CC1=O)c1ccccc1 (centres undefined),0.72,nt
O=C(Nc1nnc(SCc2nc3ccccc3[nH]c2=O)s1)NC1CCCC1,-5.7,nt

# (list continues)
SMILES,HIV TAR-Tat,CDC25B-CDK2 inh
Cc1nnc2c(Nc3ccc(O)cc3)nc3ccccc3n12,7.2*,-1.6
Cc1cc(NS(=O)(=O)c2ccc3c(c2)CC(C)N3C(=O)C2CCC2)ccc1Br (centres undefined),-0.63,nt
CCN(Cc1nc(-c2ccc(OC)c(OC)c2)no1)S(=O)(=O)c1ccc(Br)cc1,4.2,-1
CCC(=O)N1CCc2cc(Br)cc(S(=O)(=O)N3CCCC3)c21,nt,0.06
Cc1ccc(C2CC(=O)Nc3c2c(C)nn3-c2nc3ccccc3s2)cc1C (centres undefined),1.1,nt
CCOC(=O)N1CCC(Nc2c(N3CCC(C)CC3)c(=O)c2=O)CC1,0.57,-0.34
Cc1ccc(-c2noc(CN(C3CCCCC3)S(=O)(=O)c3ccc(C)cc3)n2)cc1,0.48,-0.01
CC(=O)N1c2ccc(S(=O)(=O)N3CCC(C(=O)Nc4cccc(C)n4)CC3)cc2CC1C (centres undefined),-0.86,nt
Cc1nc2ccccn2c(=O)c1Cc1nnc(SC(C)C(=O)Nc2ccccc2)n1C (centres undefined),-1.5,0.08
COc1ccc(C(N)=S)cn1,nt,-1.6
O=C1C2CCCC2=NN1c1ccccc1 (centres undefined),nt,-0.22
Cc1nn(CC(=O)NC(C)(C)C)c(C)c1S(=O)(=O)N1CCC(C(=O)N2CCC(C)CC2)CC1,1.9,nt
O=S(=O)(Nc1ccc2c(c1)N(S(=O)(=O)c1ccccc1)CCC2)c1cccc(Cl)c1,2.8,nt
COc1ccc(-n2c(C)nnc2SCc2nc(-c3ccc(OC)c(OC)c3)no2)cc1,2.8,-0.9
COc1cc2c(=O)n(Cc3ccco3)c(=O)n(CC(=O)c3ccc(Cl)cc3)c2cc1OC,1.1,-0.03
COc1cccc(-c2n[nH]c3c2C(c2cccnc2)N(C)C3=O)c1 (centres undefined),1.4,-0.57
N#Cc1c[nH]n2c(NC3CCCCC3)c(-c3cccc(Br)c3)nc12,-0.06,-0.89
CCCN(CCC)c1cc(C)nc2nc(-c3ccc(OC)cc3)nn12,2.4,-2
Nc1ccccc1S(=O)(=O)Nc1cccc2cccnc12,nt,-1.9
Nc1nc(-c2ccc(Cl)s2)cs1,nt,-0.4
CCCCCOC(=O)C1=C(C)NC2=C(C(=O)CC(C)(C)C2)C1c1cccc(F)c1 (centres undefined),1,-1.9
O=c1c(-c2ccc3c(c2)OCCO3)coc2cc(O[C@@H]3O[C@@H](CO)[C@H](O)[C@@H](O)[C@@H]3O)ccc12,nt,-1.9
O=c1cc(CSc2ncn[nH]2)[nH]c2c(F)cccc12,-1.1,nt
Cc1cccc(C(=O)OCc2cc(=O)n3nc(C4CCCCC4)sc3n2)c1,-0.95,nt
Cc1ccc2c(c1)C(Cc1nc3ccccc3c(=O)n1CCCO)C(=O)N2C(C)C (centres undefined),2.1,-1.3

# Following part:
SMILES,HIV TAR-Tat,CDC25B-CDK2 inh
Cc1cc(=O)[nH]c(-c2cccs2)n1,nt,0.45
COC(=O)c1ccc2c(c1)nnn2C(C)C,nt,-1.1
COc1ccc2c(=O)c(-c3ccc4c(c3)OCCCO4)coc2c1,nt,0.03
Cc1ccccc1Cn1cc(NC(=O)c2cnn3c(C(F)F)cc(-c4ccccc4)nc23)cn1,1.6,-0.92
CCn1c(COc2cc(C)ccc2C)nc2ccccc21,1.1,-0.22
COCCCNC(=O)c1sc2nc3n(c(=O)c2c1C)CCCC3,0.74,nt
Cc1ccc(S(=O)(=O)N(C(=O)C(C)C)c2ccc3oc(=O)sc3c2)cc1,0.71,-1.6
Cc1[nH]nc(-c2ccc(O)cc2O)c1-c1nc2ccccc2s1,1.8,-0.9
COc1cc2c(cc1OC)n(CC(=O)NC1CCCC(C)C1C)n1c(C)cc(=O)nc21 (centres undefined),0.66,-1.7
Clc1ccc(N2CCN(c3cnc4ccccc4n3)CC2)cc1,0.41,nt
O=C(c1noc2c1CCc1sccc1-2)N1CCC(c2ccccc2)C1 (centres undefined),-0.42,nt
O=c1[nH]c(SCc2ccccc2)nc2ccccc12,-1.3,-0.06&-1.1
Cn1c(=O)c2c(nc3n2CCN3c2ccccc2)n(C)c1=O,2.7,nt
CCOc1ccc(Br)cc1C1N2CC3(C(C)C)CN1CC(C(C)C)(C2)C3=O (centres undefined),1.8,-2.6
CC1CCCN(c2nc3nonc3nc2Nc2ccccc2F)C1 (centres undefined),0.14,-0.9
O=C1/C(=C/C2CCCCC2)CCc2ccccc21,nt,-0.97
CCC(=O)Nc1cccc2c1C(=O)c1ccccc1C2=O,nt,-3.1
Cc1ccc(NS(=O)(=O)c2cc(Br)cnc2N)cc1F,1.8,0.45
Cn1cc(NC(=O)N2CCN(c3ccc(F)cc3)CC2)c2ccccc2c1=O,-1.2,nt
CCc1ccc(C2C(C(=O)OC)=C(C)NC3=C2C(=O)CC(C)(C)C3)cc1 (centres undefined),0.26,-2.3
COc1ccc2cc3c(nc2c1)N(S(=O)(=O)c1ccc(F)cc1)CC3,-0.18,-1.4
Clc1cccc(Cl)c1/C=C/c1ccn[nH]1,nt,-0.99
O=S(=O)(NC1c2cccc3cccc(c23)C1N1CCNCC1)c1ccccc1 (centres undefined),nt,0.39
CCOC(=O)Oc1ccc2c(c1)C(C)=CC(C)(C)N2C(=O)OCC,0.47,-0.52
Nc1c(-c2nc(-c3ccc4c(c3)OCO4)no2)nnn1-c1ccc(F)cc1,0.34,nt

# (list continues)
SMILES,HIV TAR-Tat,CDC25B-CDK2 inh
Cc1nc(N2CCCCC2)c2c(C)c(C(=O)Nc3cnc4ccccc4c3)sc2n1,2,nt
CCCN(CCC)CCn1cnc2c([nH]c3ccccc32)c1=O,2.3,-0.47
Cc1ccc(N(C(=O)c2ccc(Br)o2)C2C=CS(=O)(=O)C2)cc1 (centres undefined),nt,-1.5
CN(C(=O)c1ccccc1F)C(c1cccs1)c1c[nH]c2ccccc12 (centres undefined),0.66,3.6
Cc1c(C(=O)N(C)Cc2ccco2)sc2nc3n(c(=O)c12)CCCCC3,3.2,nt
O=C(Nc1ncccc1O)c1cccn2c(-c3ccc(F)cc3)nnc12,1.9,nt
CCc1[nH]nc2c1C(c1cccc(OC(=O)N3CCOCC3)c1)C(C#N)=C(N)O2 (centres undefined),0.2,-2.7
Cc1cc(-c2ccc(S(=O)(=O)N3CCC(N4CCCCC4)CC3)s2)n[nH]1,-0.49,nt
CCN(CC)S(=O)(=O)c1ccc2c(c1)CC(C(=O)NCc1ccc(C)o1)N2C(C)=O (centres undefined),0.85,nt
C=CCN(Cc1nc(-c2cccc(C)c2)no1)S(=O)(=O)c1ccc(Br)cc1,0.1,-0.69
CSc1cccc(NC(=O)CSc2nc3c(c(=O)[nH]2)CCCC3)c1,2.4,0.56

# High-throughput results from PubChem.
